B2AR ag: beta2AR agonists driving receptor internalization, primary screen, cell-based, FAP fluorogen, flow cytometry. response, % (test concentration not listed). AID 504454, 2011. 0.43% of 340,000 active. Beta-2 adrenergic receptor (Homo sapiens), P07550. Am2.2-beta2AR cells; reference of the scale not given here;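 active = response above a set limit, near 3 SD of response in nonfluorescent compounds, cut at about 42% in these data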;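 also: stock transfer was 100 nL into about 11 µL; a reference agonist was the positive control; negative values mostly stem from fluorescent compounds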
T cruzi inh: inhibitors of intracellular T. cruzi growth, primary screen, luminescence, NIH3T3 host cells. T. cruzi beta-gal in NIH3T3, 90 h. inhibition, % (no concentration beside the values). 1.4% of 300,000 active. AID 1885, 2009;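 active = mean inhibition across valid replicates above about 55%, limit read from the data; inconclusive = mean below that limit but half or more replicates reach it; inactive = mean below it, under half of replicates reach it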;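 also: signal also drops with host cell toxicity which is not excluded here; 0% = plate median of DMSO wells and 100% = zero luminescence signal; higher percent means less beta-gal luminescence so fewer parasites; stock transfer was 50 nL into about 50 µL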
UCH37 inh: inhibitors of human UCH37 deubiquitinase, primary screen, biochemical, Ub-AMC cleavage, fluorescence; Ubiquitin carboxyl-terminal hydrolase isozyme L5 (Homo sapiens), Q9Y5K5; purified proteasome/UCH37; inhibition, % (test concentration not listed); 0.33% of 330,000 active; AID 588478, 2011;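 active = mean of two replicates above 20%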;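 also: 0% = compound-free wells with enzyme and 100% = wells lacking proteasome; stock transfer was 100 nL into about 20 µL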
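System: Proteasome-associated human UCH37 deubiquitinase; Input: 0.15 nM proteasome in added enzyme buffer; Also added: Ub-AMC substrate from 1 µM stock; Incubation: 30 min compound-proteasome preincubation then 25 min substrate reaction, room temperature; Detection: fluorescence, ex 355 nm, em 460 nm; Read-out: % inhibition of Ub-AMC cleavage fluorescence; Benchmarks: no-proteasome and no-compound wells.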
LANA-H2B inh: blockers of LANA interaction with H2A/H2B – biochemical, FP readout, HTS, primary screen; Protein LANA1 (Human herpesvirus 8 type P (isolate GK18)), Q9QR71; cell-free LANA-H2A/H2B peptide, fluorescence polarization; inhibition, % (no concentration beside the values); 0.6% of 320,000 active; in the data active = inhibition mostly above about 10%, no sharp cut-off; inactive = mostly below about 6.7%;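 also: stock transfer was 7.5 nL into about 10 µL; 0% = median of vehicle wells and 100% = median of positive control wells; one replicate is shown; the record names a cut of 25% in any replicate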
Target sequence (Q9QR71 whole entry, looked up): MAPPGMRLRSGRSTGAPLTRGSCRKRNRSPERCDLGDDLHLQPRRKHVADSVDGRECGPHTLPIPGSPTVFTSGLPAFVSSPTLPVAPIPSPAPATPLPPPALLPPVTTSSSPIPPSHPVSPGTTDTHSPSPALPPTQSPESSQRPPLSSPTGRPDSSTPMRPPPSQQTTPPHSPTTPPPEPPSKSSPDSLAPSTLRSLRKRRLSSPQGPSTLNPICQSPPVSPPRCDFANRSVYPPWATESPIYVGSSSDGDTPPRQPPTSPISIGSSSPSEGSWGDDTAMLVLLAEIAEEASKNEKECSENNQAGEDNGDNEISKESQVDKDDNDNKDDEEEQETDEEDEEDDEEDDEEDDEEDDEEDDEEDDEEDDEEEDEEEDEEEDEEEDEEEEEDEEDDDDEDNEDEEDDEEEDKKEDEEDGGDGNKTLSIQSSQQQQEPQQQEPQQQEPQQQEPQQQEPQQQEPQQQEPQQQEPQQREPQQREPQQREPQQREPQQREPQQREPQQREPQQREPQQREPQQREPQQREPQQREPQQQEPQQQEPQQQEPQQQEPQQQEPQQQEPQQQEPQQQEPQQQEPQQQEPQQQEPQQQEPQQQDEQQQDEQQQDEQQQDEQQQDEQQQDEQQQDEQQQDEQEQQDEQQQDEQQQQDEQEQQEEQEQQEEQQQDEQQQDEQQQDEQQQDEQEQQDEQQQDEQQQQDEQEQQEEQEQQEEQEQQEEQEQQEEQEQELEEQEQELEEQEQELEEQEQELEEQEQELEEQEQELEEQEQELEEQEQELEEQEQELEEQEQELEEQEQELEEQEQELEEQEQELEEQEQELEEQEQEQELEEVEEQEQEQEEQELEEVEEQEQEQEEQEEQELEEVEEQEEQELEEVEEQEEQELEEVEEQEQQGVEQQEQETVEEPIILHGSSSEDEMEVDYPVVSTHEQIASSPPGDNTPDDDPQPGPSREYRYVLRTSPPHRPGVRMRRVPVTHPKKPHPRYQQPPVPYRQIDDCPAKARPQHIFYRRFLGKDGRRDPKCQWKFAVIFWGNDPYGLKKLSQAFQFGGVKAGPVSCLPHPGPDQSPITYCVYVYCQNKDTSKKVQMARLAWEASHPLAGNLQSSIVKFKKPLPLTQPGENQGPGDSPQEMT
RanGTP-Imp inh: inhibitors of RanGTP-importin-beta interaction, primary screen, biochemical, FRET, CFP-Ran, YFP-importin-beta, homogeneous; Ran GTPase (GTP-bound) - importin-beta complex; cell-free CFP-Ran/YFP-importin-beta FRET ratio; inhibition, % (test concentration not listed); 1.1% of 300,000 active; AID 2216, 2009;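 active = most replicates above 15%; inconclusive = exactly half above 15%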;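 also: 0% = DMSO wells and 100% = Ran loaded with GDP instead of GTP; wells of about 40 µL received 100 nL stock; the first replicate is given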
Beta apoptosis: inhibitors of cytokine-induced beta cell apoptosis, primary screen, luminescence | INS-1E cytokine-induced death, ATP luminescence, 48 h; percent of positive-control rescue, neutral wells zero | protection from apoptosis, % (no concentration beside the values) | 0.8% of 300,000 active | AID 435005, 2010;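 active = all replicates at 75% or more, or half of them and the mean; inconclusive = half reach 75% but not the mean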;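 also: 0% = cytokine-treated negative control wells and 100% = positive control rescue; higher means more ATP so stronger rescue from cytokine killing; wells of about 40 µL received 100 nL stock; the first replicate is given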
Bfl-1 A1 inh: caspase 3/7 activation in MEF A1-2A-BIM cells, primary screen, A1 inhibitor project, cell-based, luminescence, HTS; caspase activation, % (concentration not given with the values); 0.066% of 330,000 active; AID 2462, 2010; Caspase-Glo 3/7 luminescence, 3 h; percent of clofoctol response, vehicle zero;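 active = over half of replicate activation scores above 10%, or exactly half above 10 with the replicate mean above 10; inconclusive = replicate mean below 10 yet half the replicates above 10; inactive = over half of replicates below 10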;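 also: wells of about 30 µL received 50 nL stock; many hits fall short of the cut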
Calb FLC: C. albicans growth inhibition with fluconazole, primary screen, CaCi-2 strain, Alamar Blue fluorescence | C. albicans CaCi-2 (fluconazole-resistant clinical isolate) + fluconazole, 48 h | growth inhibition, % (concentration not given with the values) | 0.57% of 300,000 active | AID 1979, 2009;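 active = most replicates above 75%; inconclusive = exactly half above 75%; inactive = most below 75%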;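 also: all wells also contain fluconazole at 8 µg/ml as a sub-toxic cotreatment; 0% = median of DMSO wells and 100% = median of geldanamycin control wells; wells of about 8 µL received 7.5 nL stock; the first replicate is given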
Numbers without * were called inactive; ? = inconclusive; · = not tested or not shown.

SMILES	B2AR ag	T cruzi inh	UCH37 inh	LANA-H2B inh	RanGTP-Imp inh	Beta apoptosis	Bfl-1 A1 inh	Calb FLC
COc1ccc(N(CC(=O)NC2CCCCC2)S(=O)(=O)c2cccnc2)cc1	-2	-8	7.6	-3.2	-1.7	3	-0.6	-5
CSc1cccc(NC(=S)NCCCN2CCN(c3ccc(F)cc3)CC2)c1	-11	10	-1.0	-5.5	4.1	-1	0.6	1
Cc1ccc2c(c1)c1c(n2CC(O)CNC2CCCC2)CCCC1 (stereo unspecified)	21	22	0.9	-2.8	1.8	-20	0.2	-10
CCOC(=O)c1nnn2c1nc(N1CCN(c3ccccc3)CC1)c1ccccc12	2	41	6.6	1.3	-2.3	12	-0.9	2
Cc1cc(C)n(-c2ccccc2[N+](=O)[O-])n1	14	-5	5.2	-1.4	0.0	3	0.9	-9
O=C1Nc2cc(Cl)cnc2N2CCCC12 (stereo unspecified)	-14	-12	-2.8	3.5	-0.4	-3	-0.2	-3
Fc1ccc(CO/N=C/C2=C(Cl)c3ccccc3CC2)cc1	-4	-6	·	2.0	-3.0	9	-2.4	-10
CC(=O)Nc1ccc2nc(NC(=O)c3ccc([N+](=O)[O-])s3)sc2c1	·	56*	9.5	30*	7.1	-13	-5.2	0
O=[N+]([O-])c1ccc(C2CCCC/C2=N\OCc2cccc(F)c2)c([N+](=O)[O-])c1 (stereo unspecified)	3	62*	·	3.8	-3.0	-1	0.1	3
NC(=O)c1ccc(-c2noc(-c3cccc(Cl)c3)n2)cc1	-5	·	2.3	-2.4	·	-7	-4.2	·
CCOCc1c(C(=O)Nc2cc(OCC)c(N3CCOCC3)cc2OCC)oc2ccccc12	5	-14	0.2	-2.7	-1.9	-4	1.1	25
COc1cc(CN2CCCC(C)C2)cc([N+](=O)[O-])c1O (stereo unspecified)	4	-5	0.1	6.3	1.9	0	0.6	6
O=C(c1cccc2ccccc12)C1CCCN(C(=O)c2ccc(N3CCOCC3)cc2)C1 (stereo unspecified)	10	1	0.5	14	?	0	0.4	-13
O=C(COc1ccc(S(=O)(=O)N2CCOCC2)cc1)NCCCn1ccnc1	4	-11	0.1	-2.0	-1.4	-7	-0.1	4
CC1(C)CC(=O)C2=C(C1)NC1=C(C(=O)c3ccccc31)C2c1cc([N+](=O)[O-])ccc1O (stereo unspecified)	-4	-1	4.3	2.4	2.1	4	0.2	5
O=C(Nc1cccc(C(F)(F)F)c1)C(Sc1n[nH]c(=O)[nH]c1=O)c1ccccc1 (stereo unspecified)	-2	0	-0.3	2.0	?	-4	0.0	-2
CC(CC(=O)Nc1ccccc1C(F)(F)F)c1ccccc1 (stereo unspecified)	4	-5	4.2	5.5	?	-5	0.1	-3
CC(C)NC(=O)CSc1nc(N)c(-c2ccccc2)c(=O)[nH]1	-3	-5	4.8	3.1	?	·	0.8	-10
CCOc1ccc(N2CC(C(=O)N3CCc4ccccc4C3)CC2=O)cc1 (stereo unspecified)	3	3	-0.4	0.5	-1.7	2	-0.2	-7
COc1ccc(CNc2nc3ccccc3n2CCN2CCCCC2)cc1	-26	14	2.4	-1.6	-3.5	-1	-0.6	-3
CCN(CC)S(=O)(=O)c1cc(NC(=O)Cc2ccsc2)ccc1C	2	19	0.7	8.5	0.0	1	-0.7	-9
CSCC[C@H](NC(=O)[C@@H]1Cc2ccccc2CN1)C(=O)NC[C@H]1CC[C@H](C(=O)O)CC1	-12	-5	·	-3.8	-2.2	-9	0.5	-1
Cn1cnc([N+](=O)[O-])c1Sc1nc2ccccc2[nH]1	-6	40	5.2	-2.6	3.0	-12	0.1	-6
FC(F)(F)c1cc(Cl)c2nnc(-c3ccccn3)n2c1	-2	-4	4.2	3.8	-1.0	2	-0.9	19
COC(=O)c1ccc(NC(=S)NCCc2ccccc2)cc1	7	-15	-0.1	0.2	0.6	-6	0.2	·
Cc1nc2c(C)cccc2cc1C(=O)N/N=C/c1cccnc1	-1	-5	·	-0.2	3.2	4	0.1	0
CCOc1ccc(NC(=S)Nc2ccc(OC)cc2)cc1	-6	2	4.8	2.1	-1.0	·	-0.5	-15
COc1cccc(C(=O)/C=C2\NCCc3cc(OC)c(OC)cc32)c1	5	6	2.7	0.9	1.8	6	-1.6	-1
CN(C)CCCN(CCCN(C)C)C(=S)Nc1ccc(S(=O)(=O)N2CCOCC2)cc1	-5	1	3.0	0.9	-0.7	-5	1.0	0
CCOC(=O)C1=C(N)OC2=C(C(=O)CCC2)C1c1ccc2c(c1)OCO2 (stereo unspecified)	-1	-1	4.6	-2.6	4.9	·	-1.5	5
CC(=O)Nc1ccc(N=Cc2nc(-c3ccc(C)cc3)oc2O)cc1	0	-10	4.5	1.3	-3.2	-4	-0.4	-1
CC(CCCC(C)(C)O)NC(=O)c1ccc(OC2CCN(C(=O)C3CC3)CC2)cc1 (stereo unspecified)	0	-11	·	-2.0	-4.1	0	-1.0	4
COc1cccc(CNCCO)c1OCc1ccc(Cl)cc1	-4	-11	6.1	3.2	1.0	0	0.2	1
Cc1ccc(C2CC(c3ccco3)=NN2S(C)(=O)=O)cc1 (stereo unspecified)	0	-19	-2.2	3.3	-2.9	-10	-1.2	-5
Cc1cc(C)n2nc(SCc3ccccc3F)nc2n1	-14	2	0.6	-0.3	?	-3	-0.4	-1
Cc1ccc(NC(=O)/C(C#N)=C(\N)C(Cl)(Cl)Cl)nc1	12	23	-2.8	15	5.5	-5	0.3	39
CC(C)CC(=O)Nc1ccccc1Oc1ccccc1	8	-17	1.4	6.0	-0.5	1	0.7	-18
COC(=O)CNC(=O)Cn1c(=O)n(Cc2ccc(F)cc2)c(=O)c2sccc21	7	-10	2.0	2.3	-3.5	·	-1.1	2
COc1cc(/C=C2\SC(N)=NC2=O)ccc1OCC(=O)Nc1ccccc1C	23	·	0.3	-2.5	·	-2	0.5	·
O=C(O)c1cccc(N2C(=O)CSC2=S)c1	-1	-3	-1.3	0.1	1.2	0	0.5	-1
Cc1ccc(C)c(OCC(=O)N/N=C/c2c(C)nn(-c3ccccc3)c2Cl)c1	·	-2	·	0.3	-2.8	0	-0.1	-7
COC(=O)c1[nH]c2c(c1C)C(=O)CC(c1ccccc1)C2 (stereo unspecified)	9	24	3.3	-6.3	2.9	39	0.0	-12
COc1ccc(-n2c(SCC(=O)NCC3CCCO3)nc3c(c2=O)SC(C)C3)cc1 (stereo unspecified)	-11	2	7.4	2.0	6.4	-3	0.0	3
O=C(NCCOc1cccc(Cl)c1Cl)c1cc(-n2cnnc2)ccc1Cl	-4	0	4.6	-0.9	5.3	-4	0.5	-6
CCOC(=O)CNC(=O)CSc1nccn1Cc1ccco1	4	-11	4.2	2.0	5.4	-1	0.2	-14
CC(=O)C[C@@H](O)CC(=O)[C@H]1OC(=O)CCCCCc2ccccc21	-4	·	0.4	0.9	·	-3	-0.1	·
NC(=O)c1ccc(NC(=O)COC(=O)CC2Sc3ccccc3NC2=O)cc1 (stereo unspecified)	24	·	2.3	2.0	·	-1	0.0	·
CC(C)C(NC(=O)CCNC(=O)c1ccc([N+](=O)[O-])cc1)c1nc2ccccc2[nH]1 (stereo unspecified)	8	·	-0.5	-0.8	·	4	1.3	·

Rewritten with each value named: part of the list above
> NC(=O)c1ccc(NC(=O)COC(=O)CC2Sc3ccccc3NC2=O)cc1 (stereo unspecified)
  B2AR ag: 24
  T cruzi inh: ·
  UCH37 inh: 2.3
  LANA-H2B inh: 2.0
  RanGTP-Imp inh: ·
  Beta apoptosis: -1
  Bfl-1 A1 inh: 0.0
  Calb FLC: ·

> CC(=O)C[C@@H](O)CC(=O)[C@H]1OC(=O)CCCCCc2ccccc21
  B2AR ag: -4
  T cruzi inh: ·
  UCH37 inh: 0.4
  LANA-H2B inh: 0.9
  RanGTP-Imp inh: ·
  Beta apoptosis: -3
  Bfl-1 A1 inh: -0.1
  Calb FLC: ·

> O=C(O)c1cccc(N2C(=O)CSC2=S)c1
  B2AR ag: -1
  T cruzi inh: -3
  UCH37 inh: -1.3
  LANA-H2B inh: 0.1
  RanGTP-Imp inh: 1.2
  Beta apoptosis: 0
  Bfl-1 A1 inh: 0.5
  Calb FLC: -1

> COc1cc(/C=C2\SC(N)=NC2=O)ccc1OCC(=O)Nc1ccccc1C
  B2AR ag: 23
  T cruzi inh: ·
  UCH37 inh: 0.3
  LANA-H2B inh: -2.5
  RanGTP-Imp inh: ·
  Beta apoptosis: -2
  Bfl-1 A1 inh: 0.5
  Calb FLC: ·

Other compounds follow:
SMILES	B2AR ag	T cruzi inh	UCH37 inh	LANA-H2B inh	RanGTP-Imp inh	Beta apoptosis	Bfl-1 A1 inh	Calb FLC
O=C(Nc1ccc2oc(-c3ccccc3F)nc2c1)c1ccc([N+](=O)[O-])o1	10	38	2.7	2.4	-0.6	2	0.0	-2
c1ccc(SCCN2CCc3ccccc3C2)cc1	14	-6	4.2	0.8	0.0	-4	-0.9	-27
Cc1ccc(NC(=O)c2cccc(N3C(=O)C4C5CCC(C5)C4C3=O)c2)c(C)c1 (stereo unspecified)	3	-12	4.2	-0.8	4.4	-6	0.0	2
O=C(CSc1ncnc2c1oc1ccccc12)N1CCCc2ccccc21	-2	20	2.0	-0.4	1.9	20	-0.3	15
C/C(=N\NC(=O)CCC(=O)N/N=C(\C)c1ccc(C)o1)c1ccc(C)o1	1	-13	·	11	1.3	-5	0.7	-7
O=CN1N=C(c2ccccc2)CC1c1ccc(Cl)cc1 (stereo unspecified)	-7	9	·	-4.5	-2.4	-2	1.2	-6
COc1ccc(OC)c(NC(=S)N2CCN(C/C=C/c3ccccc3)CC2)c1	5	-7	2.0	-2.7	1.5	0	-0.8	-29
CCCN(C(=O)CSCc1ccc(Cl)cc1)c1c(N)n(Cc2ccccc2)c(=O)[nH]c1=O	-1	-9	·	-2.3	1.5	-4	-0.5	3
CN=c1scc(-c2ccc(OC)cc2)n1/N=C(\C)c1cccnc1	-5	58*	·	2.5	·	10	-2.6	17
C#CCOc1c(Br)cc(/C=N\NC(=O)CN2CCOCC2)cc1OCC	3	-5	·	0.7	0.5	-6	-0.4	-3
Oc1c(C(c2ccco2)N2CCN(C(c3ccccc3)c3ccccc3)CC2)sc2ncnn12 (stereo unspecified)	14	4	2.3	-0.4	?	-13	-0.9	11
CC1(C)CC(=O)C(C(=S)Nc2ccccc2)=C(NCCN2CCOCC2)C1	-4	18	4.3	-7.0	-0.2	0	-1.4	-4
COc1ccc(NC(=O)Nc2ccccc2SC)cc1OC	-2	-2	0.7	-2.6	-0.5	2	-4.4	2
O=C(NCc1cccs1)c1ccc(N2CCCC2=O)cc1	3	-8	-1.3	1.8	-0.5	0	-1.1	-5
